Screens deposited in PubChem by Broad Institute.
UUG fidelity – modulators of start codon recognition fidelity in yeast. activity score, % at 18.7 µM. actives 0.13% (n = 350,000). S. cerevisiae UUG-firefly luciferase reporter, luminescence/redox ratio;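 active = replicate mean at a twofold rise or more, about +100% in these data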;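 note: firefly luciferase made from a UUG start codon reports start codon fidelity; reporter light over untreated wells divided by growth signal over untreated wells; some hits fall short of that in this replicate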
Env fusion inh – HIV envelope-mediated fusion inhibition; actives 1.1% (n = 360,000); HeLa-JRFL Env/CEM21 cell fusion, luciferase; inhibition, % at 12.3 µM;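 active = mean replicate inhibition score of at least 50 and every replicate individually at or above 50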;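 note: 0% = plate neutral controls and 100% = maraviroc near 300 nM; one replicate is shown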
* hit, by the source's call; [ ] = another dose, or the depositor's remark. These rows are one share of the data. The share of hits here may be higher or lower than overall.

#	UUG fidelity	Env fusion inh	SMILES
1	-7	-13[16.7 µM]	C[C@@H]1CN([C@H](C)CO)C(=O)c2cccc(NC(=O)c3nc4ccccc4s3)c2O[C@@H]1CN(C)Cc1ccc(C(=O)O)cc1
2	2	12[16.7 µM]	C[C@H](NC(=O)C[C@@H]1C=C[C@@H](NC(=O)C2CC2)[C@H](CO)O1)c1ccccc1
3	2	8[16.7 µM]	C[C@H](CO)N1C[C@H](C)[C@@H](CN(C)S(=O)(=O)c2cccs2)Oc2ccc(N(C)C)cc2C1=O
4	44	52[16.7 µM]	COc1ccc(S(=O)(=O)N(C)C[C@@H]2OCCCC[C@@H](C)Oc3ccc(N(C)C)cc3C(=O)N([C@@H](C)CO)C[C@H]2C)cc1
5	3	-21[16.7 µM]	C[C@H]1CN([C@@H](C)CO)C(=O)Cc2cc(NS(=O)(=O)c3ccc(F)cc3)ccc2O[C@H]1CN(C)Cc1ccncc1
6	0	-21[16.7 µM]	C[C@@H]1CN([C@@H](C)CO)C(=O)Cc2cc(NC(=O)Cc3ccccc3)ccc2O[C@@H]1CN(C)Cc1ccc2c(c1)OCO2
7	-5	-4[16.7 µM]	Cn1cnc(S(=O)(=O)N[C@H]2CC[C@H](CC(=O)NCC3CC3)O[C@H]2CO)c1
8	3	-13[16.7 µM]	COCc1cn(CC[C@@H]2CC[C@@H](NC(=O)c3ccncc3)[C@H](CO)O2)nn1
9	-2	29[16.7 µM]	COc1ccccc1-c1ccc2c(c1)O[C@@H](CN(C)S(=O)(=O)c1ccccc1)[C@@H](C)CN([C@H](C)CO)S2(=O)=O
10	-5	-18[16.7 µM]	COc1ccc(S(=O)(=O)Nc2ccc3c(c2)C(=O)N([C@H](C)CO)C[C@@H](C)[C@@H](CN(C)S(C)(=O)=O)O3)cc1
11	-4	-17[16.7 µM]	COc1ccc(NC(=O)N(C)C[C@@H]2Oc3ccc(NS(=O)(=O)c4ccc(OC)cc4)cc3C(=O)N([C@@H](C)CO)C[C@H]2C)cc1
12	-8	-16[16.7 µM]	CN1C(=O)c2cc(NC(=O)C3CC3)ccc2OC[C@H]2O[C@H](CC(=O)NCC3CCCCC3)CC[C@@H]21
13	4	1[16.7 µM]	C[C@@H]1CN([C@@H](C)CO)C(=O)c2cc(NC(=O)Nc3ccccc3)ccc2O[C@@H]1CN(C)Cc1ccc(Cl)c(Cl)c1
14	10	-23[16.7 µM]	NCC[C@H]1CC[C@@H](NC(=O)Cc2ccncc2)[C@H](CO)O1
15	34	-6[16.7 µM]	C[C@@H]1CCCCO[C@@H](CN(C)CC2CC2)[C@H](C)CN([C@@H](C)CO)C(=O)c2cc(NC(=O)Nc3cccc4ccccc34)ccc2O1
16	7	0[16.7 µM]	C[C@@H]1CCCCO[C@H](CN(C)C(=O)CCCN(C)C)[C@H](C)CN([C@H](C)CO)C(=O)c2cc(NC(=O)c3ccccc3)ccc2O1
17	-5	20[16.7 µM]	CO[C@H]1CN(C)C(=O)c2cc(NS(=O)(=O)CC(F)(F)F)ccc2OC[C@H](C)NC[C@H]1C
18	-4	3[16.7 µM]	COc1ccc(CN(C)C[C@@H]2OCCCC[C@@H](C)Oc3ccc(NC(=O)Nc4ccc(C(F)(F)F)cc4)cc3C(=O)N([C@H](C)CO)C[C@@H]2C)cc1
19	-1	56*[16.7 µM]	O=C(C[C@@H]1C[C@H]2c3cc(NS(=O)(=O)c4ccc(F)cc4)ccc3O[C@H]2[C@@H](CO)O1)NCc1ccccc1F
20	16	-19[16.7 µM]	CC(C)CC#Cc1ccc2c(c1)O[C@H](CN(C)C(=O)NC1CCCC1)[C@H](C)CN([C@@H](C)CO)S2(=O)=O
21	12	-9[16.7 µM]	Cc1noc(C)c1S(=O)(=O)Nc1ccc2c(c1)C(=O)N([C@@H](C)CO)C[C@H](C)[C@H](CN(C)Cc1ccc(-c3ccccc3)cc1)O2
22	8	-2[16.7 µM]	O=C(C[C@@H]1CC[C@H](NC(=O)C2CCOCC2)[C@@H](CO)O1)Nc1ccc(-c2ccccc2)cc1
23	9	-15[16.7 µM]	C=CCN1C(=O)N[C@@H]2c3ccccc3O[C@@]1(COCc1ccc(OC)cc1)[C@@H]2CO
24	-8	4[16.7 µM]	C[C@H](NC(=O)C[C@@H]1C[C@@H]2c3cc(NS(C)(=O)=O)ccc3O[C@@H]2[C@H](CO)O1)c1ccccc1
25	10	-25[16.7 µM]	C[C@@H]1CN([C@H](C)CO)C(=O)c2cccc(NS(=O)(=O)c3cccs3)c2O[C@H]1CN(C)CC1CC1
26	-12	-18[16.7 µM]	COc1cccc(NC(=O)N[C@H]2C=C[C@H](CC(=O)N3CCOCC3)O[C@@H]2CO)c1
27	-11	9[16.7 µM]	O=C(C[C@@H]1C=C[C@@H](NC(=O)CN2CCOCC2)[C@H](CO)O1)NCc1cccc(F)c1
28	0	16[16.7 µM]	Cc1ccc(-c2cnc3c(c2)C(=O)N([C@@H](C)CO)C[C@@H](C)[C@@H](CN(C)C(=O)Cc2ccccc2)O3)cc1
29	3	-16[16.7 µM]	C[C@H]1CN([C@@H](C)CO)C(=O)c2cc(C#CC(C)(C)O)cnc2O[C@@H]1CN(C)C(=O)C1CCCCC1
30	-6	-3[16.7 µM]	CCCNC(=O)N[C@@H]1CC[C@H](CCn2cc(C3CCCCC3)nn2)O[C@@H]1CO
31	7	4[16.7 µM]	C[C@H]1CN([C@@H](C)CO)C(=O)Cc2cc(NC(=O)Nc3ccc(F)cc3)ccc2O[C@H]1CN(C)CC1CC1
32	5	-2[16.7 µM]	Cn1cnc(S(=O)(=O)N[C@@H]2C=C[C@H](CC(=O)NCC3CCCCC3)O[C@H]2CO)c1
33	18	7[16.7 µM]	C[C@@H]1CN([C@H](C)CO)C(=O)Cc2cc(NC(=O)CCC(F)(F)F)ccc2O[C@H]1CN(C)CC1CC1
34	4	-15[16.7 µM]	C[C@@H]1CN([C@@H](C)CO)C(=O)Cc2cc(NS(=O)(=O)c3ccc(Cl)cc3)ccc2O[C@@H]1CN(C)C(=O)Nc1ccc(C(F)(F)F)cc1
35	-1	-6[16.7 µM]	C[C@@H]1CN([C@H](C)CO)S(=O)(=O)c2ccc(C#CC3(O)CCCC3)cc2O[C@@H]1CN(C)C(=O)c1ccncc1
36	-4	21[16.7 µM]	Cc1noc(C)c1NC(=O)N[C@H]1CC[C@H](CCNC(=O)C2CC2)O[C@@H]1CO
37	10	-1[16.7 µM]	CCC(=O)Nc1ccc2c(c1)C(=O)N(C)[C@@H]1CC[C@H](CC(=O)NCc3ccccc3Cl)O[C@H]1CO2
38	1	8[16.7 µM]	C[C@H]1CN([C@@H](C)CO)C(=O)Cc2cc(NS(=O)(=O)c3ccc(Cl)cc3)ccc2O[C@@H]1CN(C)C(=O)Nc1ccc(F)cc1
39	0	-5[16.7 µM]	C[C@@H]1CCCCO[C@@H](CN(C)C(=O)c2ccncc2)[C@@H](C)CN([C@@H](C)CO)C(=O)c2cc(NS(=O)(=O)c3ccc(F)cc3)ccc2O1
40	7	-10[16.7 µM]	C[C@@H]1CCCCO[C@@H](CN(C)C(=O)c2ccccc2)[C@@H](C)CN([C@H](C)CO)C(=O)c2cc(NC(=O)Cc3ccccc3)ccc2O1
41	9	6[16.7 µM]	C/C=C/c1cnc2c(c1)C(=O)N([C@H](C)CO)C[C@H](C)[C@H](CN(C)C(=O)Nc1ccc(C(F)(F)F)cc1)O2
42	-2	-3[16.7 µM]	C[C@H]1CCCCO[C@@H](CN(C)C(=O)Nc2cccc3ccccc23)[C@@H](C)CN([C@@H](C)CO)C(=O)c2cc(NS(=O)(=O)c3ccccc3)ccc2O1
43	17	-5[16.7 µM]	C[C@@H]1CN([C@@H](C)CO)C(=O)c2cc(C#CCN(C)C)cnc2O[C@H]1CN(C)C(=O)c1ccc(F)cc1
44	13	26[16.7 µM]	N#C[C@@H]1[C@H](c2ccc(-c3cccc(F)c3)cc2)[C@@H](CO)N1C(=O)CN1CCOCC1
45	-1	4[16.7 µM]	C[C@@H]1CN([C@@H](C)CO)C(=O)Cc2cc(NC(=O)CCN3CCOCC3)ccc2O[C@@H]1CN(C)Cc1ccc2c(c1)OCO2
46	-4	-4[16.7 µM]	CCCNC(=O)C[C@@H]1CC[C@@H]2[C@H](COc3ccc(NC(=O)CC)cc3C(=O)N2C)O1
47	9	3[16.7 µM]	Cc1ccc(S(=O)(=O)N[C@@H]2CC[C@@H](CCNC(=O)C3CCOCC3)O[C@@H]2CO)cc1
48	3	-12[16.7 µM]	COc1ccc(S(=O)(=O)Nc2ccc3c(c2)C(=O)N([C@H](C)CO)C[C@@H](C)[C@H](CN(C)Cc2ccccc2)O3)cc1
49	-11	9[16.7 µM]	C[C@@H]1CN([C@@H](C)CO)S(=O)(=O)c2ccc(-c3cncnc3)cc2O[C@H]1CN(C)C(=O)CC1CC1
50	10	9[16.7 µM]	C[C@@H]1CN([C@H](C)CO)C(=O)c2cc(NC(=O)C3CCCCC3)ccc2O[C@@H](C)CCCCO[C@@H]1CN(C)C(=O)Nc1ccccc1

Additional structures
#	UUG fidelity	Env fusion inh	SMILES
51	2	-6[16.7 µM]	O=C(C[C@H]1CC[C@@H](NC(=O)CN2CCOCC2)[C@H](CO)O1)NC1CCCCC1
52	11	17[16.7 µM]	CC(C)C#Cc1cnc2c(c1)C(=O)N([C@H](C)CO)C[C@@H](C)[C@H](CN(C)Cc1ccccc1)O2
53	-12	-11[16.7 µM]	Cc1noc(C)c1NC(=O)N(C)C[C@H]1Oc2ccc(NC(=O)Nc3ccc(C(F)(F)F)cc3)cc2C(=O)N([C@@H](C)CO)C[C@@H]1C
54	2	-13[16.7 µM]	C[C@H](CO)N1C[C@H](C)[C@@H](CN(C)S(=O)(=O)c2cccs2)Oc2ccc(NC(=O)C3CCCCC3)cc2CC1=O
55	7	31[16.7 µM]	COc1ccc(NC(=O)N(C)C[C@H]2Oc3c(NC(=O)c4ccncc4)cccc3C(=O)N([C@@H](C)CO)C[C@@H]2C)cc1
56	19	10[16.7 µM]	CC(=O)N(C)C[C@H]1Oc2cc(-c3cccc(F)c3)ccc2S(=O)(=O)N([C@H](C)CO)C[C@H]1C
57	1	-64[16.7 µM]	C[C@H](CO)N1C[C@H](C)[C@@H](CN(C)C(=O)C2CCCCC2)OCCCC[C@H](C)Oc2ccc(NS(=O)(=O)c3ccccc3)cc2C1=O
58	5	1[16.7 µM]	CNC[C@H]1Oc2ccc(NC(=O)Nc3ccc(OC)cc3)cc2C(=O)N([C@H](C)CO)C[C@H]1C
59	-5	15[16.7 µM]	CO[C@@H]1CN(C)C(=O)c2cc(NC(=O)Nc3ccccc3Cl)ccc2OC[C@@H](C)N(C)C[C@H]1C
60	-4	-9[16.7 µM]	C[C@H]1CN([C@@H](C)CO)S(=O)(=O)c2ccc(-c3cncnc3)cc2O[C@H]1CN(C)C
61	1	-17[16.7 µM]	Cc1ccc(S(=O)(=O)Nc2ccc3c(c2)C(=O)N([C@@H](C)CO)C[C@@H](C)[C@H](CN(C)Cc2ccncc2)OCCCC[C@@H](C)O3)cc1
62	4	17[16.7 µM]	C[C@@H]1CN([C@H](C)CO)C(=O)c2cc(NC(=O)C3CC3)ccc2O[C@H]1CN(C)C(=O)Nc1ccc2c(c1)OCO2
63	8	-16[16.7 µM]	CC(=O)Nc1ccc2c(c1)C(=O)N(C)[C@@H]1CC[C@@H](CC(=O)N3CCc4ccccc4C3)O[C@@H]1CO2
64	-6	13[16.7 µM]	C[C@H]1CCCCO[C@H](CN(C)S(=O)(=O)c2ccccc2)[C@@H](C)CN([C@@H](C)CO)C(=O)c2cc(NC(=O)Nc3ccc(C(F)(F)F)cc3)ccc2O1
65	5	-5[16.7 µM]	O=C(Cc1ccncc1)NCC[C@@H]1CC[C@@H](NC(=O)Nc2cccc(F)c2)[C@H](CO)O1
66	-7	4[16.7 µM]	C[C@@H]1CCCCO[C@@H](CN(C)C(=O)Nc2ccc(F)cc2)[C@@H](C)CN([C@H](C)CO)C(=O)c2cc(NC(=O)c3ccncc3)ccc2O1
67	-5	10[16.7 µM]	C[C@@H]1CN([C@H](C)CO)C(=O)c2cccc(NS(=O)(=O)c3ccc(Cl)cc3)c2O[C@H]1CN(C)Cc1ccc(C(F)(F)F)cc1
68	20	5[16.7 µM]	COc1ccc(-c2ccc3c(c2)O[C@@H](CN(C)CC2CCOCC2)[C@H](C)CN([C@H](C)CO)S3(=O)=O)cc1
69	14	19[16.7 µM]	N#C[C@H]1[C@@H](c2ccc(C#CC3CCCCC3)cc2)[C@H](CO)N1C(=O)c1cccc(F)c1

Structural class, the entries above containing a CF3 group (eight)
#	UUG fidelity	Env fusion inh	SMILES
17	-5	20[16.7 µM]	CO[C@H]1CN(C)C(=O)c2cc(NS(=O)(=O)CC(F)(F)F)ccc2OC[C@H](C)NC[C@H]1C
18	-4	3[16.7 µM]	COc1ccc(CN(C)C[C@@H]2OCCCC[C@@H](C)Oc3ccc(NC(=O)Nc4ccc(C(F)(F)F)cc4)cc3C(=O)N([C@H](C)CO)C[C@@H]2C)cc1
33	18	7[16.7 µM]	C[C@@H]1CN([C@H](C)CO)C(=O)Cc2cc(NC(=O)CCC(F)(F)F)ccc2O[C@H]1CN(C)CC1CC1
34	4	-15[16.7 µM]	C[C@@H]1CN([C@@H](C)CO)C(=O)Cc2cc(NS(=O)(=O)c3ccc(Cl)cc3)ccc2O[C@@H]1CN(C)C(=O)Nc1ccc(C(F)(F)F)cc1
41	9	6[16.7 µM]	C/C=C/c1cnc2c(c1)C(=O)N([C@H](C)CO)C[C@H](C)[C@H](CN(C)C(=O)Nc1ccc(C(F)(F)F)cc1)O2
53	-12	-11[16.7 µM]	Cc1noc(C)c1NC(=O)N(C)C[C@H]1Oc2ccc(NC(=O)Nc3ccc(C(F)(F)F)cc3)cc2C(=O)N([C@@H](C)CO)C[C@@H]1C
64	-6	13[16.7 µM]	C[C@H]1CCCCO[C@H](CN(C)S(=O)(=O)c2ccccc2)[C@@H](C)CN([C@@H](C)CO)C(=O)c2cc(NC(=O)Nc3ccc(C(F)(F)F)cc3)ccc2O1
67	-5	10[16.7 µM]	C[C@@H]1CN([C@H](C)CO)C(=O)c2cccc(NS(=O)(=O)c3ccc(Cl)cc3)c2O[C@H]1CN(C)Cc1ccc(C(F)(F)F)cc1
